miR-21 FLuc: raises the signal of a miR-21 reporter | HeLa miR-21 FLuc reporter, luciferase, 48 h | Potency, µM (top dose mostly 38.3 µM), inactives show at the highest dose reporter change, positive = more light | 340,000 tested, under 10 active | AID 2288; active = well fitted rising curve with a large enough effect; inconclusive = small, poorly fitted or top-dose-only effect; inactive = no such curve, though single readings can be large or run the other way;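 also: % of control where 0% means no effect; miR-21 action dims this reporter so a rising signal means less miR-21 action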
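HeLa cells stably expressing CMV-driven firefly luciferase with a downstream miR-21 binding sequence, endogenously expressing miR-21, were treated with titrations (up to about 40uM final) for 48 hours at 37 degree Celsius. Luciferase luminescence was read after lysis.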
An asterisk follows results filed as active; ? = inconclusive. A portion of the library (hit frequency here may not be typical).

The first seven records as a preview:
SMILES	miR-21 FLuc
CCOc1ccc2oc(=O)cc(CN3CCN(C(=O)c4cccc(F)c4)CC3)c2c1	-1%
CCC(CC)C(=O)Nc1c(C(=O)N2CCN(c3ccccc3F)CC2)oc2ccccc12	?
CCc1ccc(NCc2cc3ccc(OC)cc3n(CC(=O)Nc3ccccc3OC)c2=O)cc1	1%
O=C(CSc1ccccc1)NCc1ccc2c(c1)CCN2C(=O)c1ccccc1	?
O=C(CN1C(=O)CC(c2ccco2)Sc2ccccc21)Nc1ccc(Br)cc1 (stereo not given)	9%
CCOc1ccc(NC(=O)CC2C(=O)N(c3cccc(C)c3)C(=O)N2Cc2ccco2)cc1 (stereo not given)	-4%
COc1ccc(Nc2nn(-c3ccc(OC(F)(F)F)cc3)nc2C(C)=O)cc1	0%

Results (from the top)
SMILES	miR-21 FLuc
CCOc1ccc2oc(=O)cc(CN3CCN(C(=O)c4cccc(F)c4)CC3)c2c1	-1%
CCC(CC)C(=O)Nc1c(C(=O)N2CCN(c3ccccc3F)CC2)oc2ccccc12	?
CCc1ccc(NCc2cc3ccc(OC)cc3n(CC(=O)Nc3ccccc3OC)c2=O)cc1	1%
O=C(CSc1ccccc1)NCc1ccc2c(c1)CCN2C(=O)c1ccccc1	?
O=C(CN1C(=O)CC(c2ccco2)Sc2ccccc21)Nc1ccc(Br)cc1 (stereo not given)	9%
CCOc1ccc(NC(=O)CC2C(=O)N(c3cccc(C)c3)C(=O)N2Cc2ccco2)cc1 (stereo not given)	-4%
COc1ccc(Nc2nn(-c3ccc(OC(F)(F)F)cc3)nc2C(C)=O)cc1	0%
O=S(=O)(c1ccccc1)c1nnn2c1nc(NCc1cccs1)c1sccc12	-13%
Cn1c(=O)c2c(nc(SCC(=O)Nc3ccc(F)cc3)n2Cc2ccccc2F)n(C)c1=O	-1%
COc1ccccc1N1CCN(S(=O)(=O)c2c(C)sc3ncn(CC(=O)N(C)c4ccc(C(C)C)cc4)c(=O)c23)CC1	25%
COc1ccc(CCNC(=O)c2ccc3c(c2)N(Cc2cccc(Cl)c2)C(=O)c2ccccc2S3=O)cc1OC (stereo not given)	14%
COc1ccc(-n2nc(C(=O)NCCc3cccc(C)c3)c3c4ccccc4n(C)c3c2=O)cc1Cl	-3%
CCC(C)NC(=O)c1sc2nc(C)c(C(=O)Nc3ccc(Cl)cc3)c(-c3ccc(Br)cc3)c2c1N (stereo not given)	0%
C=C(C)CSc1nc2sc3c(c2c(=O)n1Cc1ccccc1)CC(C)(CC)OC3 (stereo not given)	-1%
CC(Nc1ccc(-c2nc(-c3ccncc3)no2)cc1[N+](=O)[O-])c1ccccc1 (stereo not given)	2%
CCOc1ccccc1NC(=O)c1cn(C2CCCC2)c(=O)c2c1c1ccccc1n2C	-7%
COc1cccc(NC(=O)C(=O)NCCc2csc(-c3ccc(C)cc3)n2)c1	-50%
CCc1cccc(C)c1NC(=O)Cn1nc(C)c2nn(-c3ccc(Cl)cc3)c(C)c2c1=O	-12%
CCc1ccc(-c2nn(CC(=O)Nc3ccccc3)c3c2cnc2ccc(F)cc23)cc1	-37%
O=C(Nc1ccc2nc(SCC(=O)N3CCCc4ccccc43)sc2c1)c1cccc(F)c1	30%
Cc1cc(C)cc(NC(=O)C2CCCN(S(=O)(=O)c3cccc4nsnc34)C2)c1 (stereo not given)	-2%
COc1ccc(NC(=O)Cn2c(=O)n(Cc3ccccc3)c(=O)c3oc4ccccc4c32)cc1Cl	-12%
COCCNC(=O)CN1C(=O)c2cccnc2Oc2ccc(Cl)cc21	0%
COc1ccccc1NC(=O)CN1C(=O)C2(SCC(=O)N2c2ccc(F)c(F)c2)c2ccccc21 (stereo not given)	6%
CCN(C(=O)c1cccn(Cc2cccc(Cl)c2)c1=O)c1ccccc1	2%
O=C(Cn1nc(-c2ccccc2)nc(Cc2ccccc2)c1=O)Nc1ccc(Cl)cc1	7%
COc1ccc(NC(=O)c2ccc(-c3cccc(Cl)c3C)o2)cc1	-20%
Cc1ccc(C(=O)NCc2ccc3c(c2)CCN3C(=O)c2ccc(C)cc2)cc1	15%
CC(=O)Nc1cc(C(=O)NCc2ccc(C)cc2)ccc1Sc1ccc(C)cc1	4%
CC(C)c1ccc(NC(c2nnc(-c3ccccc3)o2)c2ccc(F)cc2Cl)cc1 (stereo not given)	13%
Cc1ccc(NC(=O)c2cnn3c2NC(c2ccccc2)=CC3c2ccccc2)cc1 (stereo not given)	2%
Cc1ccc(OCC(=O)Nc2c(C(=O)c3ccc(Cl)cc3)oc3ccccc23)cc1C	0%
CC1CCCN(S(=O)(=O)c2cc3c4c(c2)CC(=O)N4CCC3)C1 (stereo not given)	-2%
CCOC(=O)c1[nH]c(C)c(C(=O)NC(CC)Cc2ccccc2)c1C (stereo not given)	-2%
COc1ccc(Cl)cc1NC(=O)CSc1nc2c(oc3ccccc32)c(=O)n1Cc1ccco1	2%
O=C(Nc1cccc(OCc2cc(=O)n3c4c(sc3n2)CCCC4)c1)c1ccc(F)cc1	-43%
CN(CCCNC(=O)Cn1ncc2c([nH]c3ccccc32)c1=O)Cc1ccccc1	2%
Cc1cccc(Cn2nnc3c(=O)[nH]c(C4CCCN(C(=O)c5ccccc5Cl)C4)nc32)c1 (stereo not given)	-15%
Clc1ccc(-c2noc(-c3cccnc3N3CCN(c4ccccc4)CC3)n2)cc1	-2%
CCCCN(C)CCNC(=O)Cn1ncc2c3ccccc3n(CCC)c2c1=O	-15%
COc1ccc(CNC(=O)CN2C(=O)CCCc3ccccc32)cc1	-2%
O=C(c1ccc2c(c1)OCCO2)N(Cc1cccnc1)c1nc2c(F)cc(F)cc2s1	22%
CCCN1CCN(c2ncc3c(n2)CCN(Cc2ccc(OC)c(OC)c2OC)C3)CC1	14%
COc1ccccc1NS(=O)(=O)c1cn(C)c(C)n1	-7%
Cc1ccc2nc(N(Cc3cccnc3)C(=O)C3COc4ccccc4O3)sc2c1 (stereo not given)	-20%
COc1ccc(NC(=O)CC2C(=O)N(c3ccc(OC)cc3)C(=O)N2C2CCCCC2)cc1 (stereo not given)	-15%
Cc1cccc(C(=O)Nc2c3c(nn2-c2ccc(Cl)cc2)CS(=O)(=O)C3)c1	2%
CN(C(=O)CSc1nc2ccc(NC(=O)c3cccc(F)c3)cc2s1)c1ccccc1	?
Cc1ccc(C2CC(=O)N(Cc3ccc(F)cc3)c3c2c(C)nn3-c2nc(C)cc(C)n2)cc1 (stereo not given)	0%
CCCN(C(=O)c1c(C)oc2ncnc(N3CCOCC3)c12)c1ccc(Cl)c(Cl)c1	6%
Cc1cccc(NC(=O)c2ccc(-c3ccccc3)s2)c1	-58%
CC(C)Cc1ccc(S(=O)(=O)Nc2cc3c(cc2N2CCOCC2)n(C)c(=O)c(=O)n3C)cc1	-2%
Cc1ccc(NC(=O)c2c(C)oc3ncnc(N4CCCCC4)c23)c(C)c1	0%
Cc1ccc(OCC(=O)Nc2nc(-c3ccc(Br)cc3)ns2)cc1	-22%
CC(=O)c1ccc(NS(=O)(=O)c2cnc(N)nc2)cc1	-24%
CCCOc1ccc(OC(=O)c2c(-c3ccccc3Cl)noc2C)cc1	1%
Cc1cc2n(n1)CCCN2C(=O)Nc1ccc(C)c(Cl)c1	-3%
COc1ccc(N2CCN(C(=O)C3CCN(S(=O)(=O)Cc4ccccc4)CC3)CC2)cc1	-5%
Cc1cccc(N2CCN(C(=O)c3cn(C)c4ccc(S(=O)(=O)N(C)C)cc4c3=O)CC2C)c1 (stereo not given)	2%
Cc1cccc(N2CCN(c3nc4ccc(C)cc4n4cnnc34)CC2C)c1 (stereo not given)	-7%

As a working copy, 4 of the compounds above:
SMILES	miR-21 FLuc
Cc1cc2n(n1)CCCN2C(=O)Nc1ccc(C)c(Cl)c1	-3%
COc1ccc(N2CCN(C(=O)C3CCN(S(=O)(=O)Cc4ccccc4)CC3)CC2)cc1	-5%
Cc1cccc(N2CCN(C(=O)c3cn(C)c4ccc(S(=O)(=O)N(C)C)cc4c3=O)CC2C)c1 (stereo not given)	2%
Cc1cccc(N2CCN(c3nc4ccc(C)cc4n4cnnc34)CC2C)c1 (stereo not given)	-7%

Continued:
SMILES	miR-21 FLuc
Cc1ccc(-n2ncc3c(NCCCN4CCOCC4)ncnc32)cc1C	-59%
Cc1nnc(N2C(=O)c3oc4ccccc4c(=O)c3C2c2ccc(F)cc2)s1 (stereo not given)	5%
COc1ccc(-c2nnc(SCC(=O)Nc3ccc(C)c(Cl)c3)nc2-c2ccc(OC)c(OC)c2)cc1OC	20%
Cc1ccc(CNCc2c(C(=O)O)n(Cc3ccccc3C)c3cc(C)ccc23)cc1	-1%
O=C(NCc1ccccc1)c1c2c(nc3ccccc13)C(=O)N(C1CCCCC1)C2	12%
CS(=O)(=O)N1CCC(n2c(C(F)(F)F)nc3cccnc32)CC1	-4%
COc1cc(Cl)c(C)cc1NC(=O)c1cnc(N2CCCCC2)c2ccccc12	2%
Cc1cccc2nc(-c3ccccn3)c(Nc3ccc(F)cc3)n12	?
COc1ccccc1OCCSc1nc(-c2ccc(C(C)(C)C)cc2)nc2cc(=O)[nH]n12	-13%
Cc1ccc(-c2cc(NC(=O)c3ccccc3Cl)on2)cc1	-62%
Cc1ccc(C2c3c(oc4ccccc4c3=O)C(=O)N2c2nnc(C)s2)cc1 (stereo not given)	0%
O=C(Nc1ccccc1C(F)(F)F)N1CCOc2ccc(Cl)cc21	4%
CCN(C(=O)Cc1c(C(=O)O)c(C)cn1C)c1cccc(Cl)c1	3%
Cc1cccc(OCCSc2nc3ccccc3n2CC(=O)N2CCOCC2)c1	0%
CCc1ccc(-n2c(=O)c3c4c(sc3n(CC(=O)NC(C)CC)c2=O)CCCC4)cc1 (stereo not given)	6%
COc1ccc(OC)c(Nc2ncnc3c2nc2n3CCCC2)c1	4%
O=C(CCCCCn1c(=O)c2sccc2n(CC(=O)Nc2ccccc2F)c1=O)NCc1ccc2c(c1)OCO2	-1%
CCN(CC)C(=O)Cn1cc(SCC(=O)Nc2ccccc2C)c2ccccc21	4%
CCCN(CCC)S(=O)(=O)c1ccc(N2CCCCS2(=O)=O)cc1	6%
COC(=O)c1cc2oc(C)cc2n1CC(=O)Nc1ccc(OC)c(OC)c1	1%
COc1ccc(N(Cc2ccccc2)C(=O)c2nc(S(C)(=O)=O)ncc2Cl)cc1	?
CCOCCCNC(=O)C1CCCN(Cc2nc(-c3ccc(CC)cc3)oc2C)C1 (stereo not given)	8%
CCCCc1ccc(C(=O)Nc2ccc3nc(N4CCN(CC)CC4)cc(C)c3c2)cc1	1%
N#Cc1ccccc1NC(=O)C(=O)NCCc1csc2nc(-c3cccc(F)c3)nn12	2%
Cc1ccc2oc3c(c(=O)c2c1)C(c1ccccc1F)N(CCCN1CCOCC1)C3=O (stereo not given)	-26%
O=C(NCc1ccccc1)c1cc(Sc2cccc(Cl)c2)nc2ccccc12	0%
CCCn1c2ccccc2c2cnn(CC(=O)NCC3CCN(Cc4ccccc4C)CC3)c(=O)c21	5%
COc1ccc(-c2noc(-c3ccc(NCCc4ccccc4)c([N+](=O)[O-])c3)n2)cc1	-18%
CCCCOc1ccc(CNC(=O)CN2C(=O)CCn3nc(-c4cn(C)c5ccccc45)cc32)cc1	-2%
Cc1c(NC(=O)c2nc3ccccc3nc2N2CCCCC2)cccc1[N+](=O)[O-]	-1%
Cc1ccc(C(=O)Nc2ccc3oc(-c4ccccc4C)nc3c2)cc1	0%
Cc1ccc(NC(=O)C2CCCN(S(=O)(=O)c3ccc4[nH]c(=O)ccc4c3)C2)cc1Cl (stereo not given)	-3%
COc1ccc(-c2noc(CSCC(=O)Nc3cc(OC)c(OC)c(OC)c3)n2)cc1OC	-2%
COc1ccc(NC(=O)C(NC(=O)/C=C\c2ccc3c(c2)OCO3)c2ccccc2)cc1 (stereo not given)	28%
CCCN(CCC)C(=O)Cn1c(=O)n(-c2ccc(CC)cc2)c(=O)c2c3c(sc21)CCC3	0%
COc1ccc(-c2ccc(=O)n(CC(=O)Nc3cc(OC)ccc3OC)n2)cc1	-18%
Cc1cccc(NC(=O)c2ccc(-n3cnc4cccnc43)cc2)c1C	0%
COc1ccc(NC(=O)Cn2ccn(Cc3ccccc3)c(=O)c2=O)cc1Cl	1%
Cc1cc(C)c(NC(=O)c2nc3ccccc3nc2N2CCCCC2)c(C)c1	-2%
O=C(Cn1ncn2c(cc3cc(F)ccc32)c1=O)NC1CCCCC1	-2%
COc1ccc(Cl)cc1S(=O)(=O)Nc1cccc(-c2ccc(N3CCOCC3)nn2)c1	-31%
CCc1ccc(C(=O)NC2=NC(c3ccccc3F)CC(=O)N2)cc1 (stereo not given)	-2%
CC1CCN(c2nc3ccc(C(=O)NCc4ccccc4)cc3s2)CC1	-46%
CN(C)c1ccc(C(CNC(=O)COc2ccccc2)N2CCOCC2)cc1 (stereo not given)	-1%
COc1ccc(Cn2ccnc2SCC(=O)NCc2ccco2)cc1	-4%

Pulled by compound from the list above (two):
SMILES	miR-21 FLuc
CCc1ccc(C(=O)NC2=NC(c3ccccc3F)CC(=O)N2)cc1 (stereo not given)	-2%
CN(C)c1ccc(C(CNC(=O)COc2ccccc2)N2CCOCC2)cc1 (stereo not given)	-1%

From PubChem BioAssay
